Compound activity deposited in PubChem BioAssay by several laboratories.
Mtb bLac sens = beta-lactam sensitization of Mtb H37Rv, H37Rv; AID 434955, 2010; 330,000 compounds, 0.27% hits; inhibition, % at 25 µM; M. tuberculosis H37Rv growth with meropenem, percent inhibition; hits of this screen are not shown here;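 active means about 74% or more and at least 40 points above the plate without the antibiotic, then above 30% in a dose series; inconclusive means first-round hits that could not be retested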;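 further: growth measured after seven days incubation then overnight dye step; 0% = bacteria only wells and 100% = bacteria with antibiotic; twin plates without the antibiotic show which effects depend on it; some results filed as inactive read as strong as hits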
Arbovirus inh = antivirals against arbovirus infection, primary screen, cell-based, full library, 10K replicate subset. arbovirus infection cell-based antiviral screen. inhibition, % at 10 µM. 200,000 compounds, 0.37% hits. AID 1251, 2008;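 active means inhibition from about 30%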;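 further: bluetongue infection of BSR cells; cell survival read as ATP light after 72 h; 0% = infected wells without compound and 100% = uninfected wells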
YopH inh = YopH tyrosine phosphatase inhibitors, primary screen, biochemical, fluorescence Ex485/Em525 | YopH tyrosine phosphatase [Yersinia enterocolitica] | inhibition, %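 (about 10 µM by stock and volumes)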 | 140,000 compounds, 0.16% hits | AID 898, 2007;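 active means inhibition of 50% or more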;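 further: controls were vehicle for no effect and minimum signal wells for full effect; inactives centre near -20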
RecA intein inh = Mtb RecA intein splicing inhibitors, primary screen, biochemical, fluorescence, HTS. AID 2221, 2009. cell-free RecA intein splicing. inhibition, %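 (about 9 µM by stock and volumes)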. Protein RecA (Mycobacterium tuberculosis (strain ATCC 25618 / H37Rv)), P9WHJ3. 290,000 compounds, 0.75% hits; in the data active means inhibition above about 30%; inconclusive means no clear call, values can overlap the other calls;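 further: 0% = vehicle wells and 100% = reference inhibitor control wells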
Target sequence (P9WHJ3 whole entry, looked up): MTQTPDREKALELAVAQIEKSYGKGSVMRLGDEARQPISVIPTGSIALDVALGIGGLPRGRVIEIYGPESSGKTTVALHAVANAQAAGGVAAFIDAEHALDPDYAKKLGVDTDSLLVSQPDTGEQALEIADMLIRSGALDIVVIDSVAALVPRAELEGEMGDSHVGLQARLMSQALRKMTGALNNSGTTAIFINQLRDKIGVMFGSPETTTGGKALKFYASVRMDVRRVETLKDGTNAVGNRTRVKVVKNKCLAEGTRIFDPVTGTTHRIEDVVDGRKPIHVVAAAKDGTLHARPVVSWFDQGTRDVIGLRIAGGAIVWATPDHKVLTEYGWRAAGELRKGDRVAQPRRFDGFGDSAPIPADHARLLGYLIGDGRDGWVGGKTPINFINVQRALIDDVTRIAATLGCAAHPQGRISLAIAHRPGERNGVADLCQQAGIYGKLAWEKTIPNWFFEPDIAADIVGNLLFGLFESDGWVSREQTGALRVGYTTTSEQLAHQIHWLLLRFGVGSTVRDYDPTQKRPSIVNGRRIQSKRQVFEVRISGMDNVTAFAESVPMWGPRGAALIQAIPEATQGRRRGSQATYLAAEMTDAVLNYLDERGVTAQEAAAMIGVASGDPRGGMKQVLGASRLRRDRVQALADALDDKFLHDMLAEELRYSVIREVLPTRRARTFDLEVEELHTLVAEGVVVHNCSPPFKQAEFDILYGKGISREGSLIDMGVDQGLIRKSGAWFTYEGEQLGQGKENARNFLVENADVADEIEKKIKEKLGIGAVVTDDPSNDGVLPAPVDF
Mtb H37Rv = M. tuberculosis H37Rv growth inhibitors, H37Rv strain (AID 1626); inhibition, % at 10 µM; hits with a dose series show IC50 in µM; M. tuberculosis H37Rv growth inhibition; higher % means a stronger effect; 220,000 compounds, 0.95% hits;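 active means confirmed in a dose series; inconclusive means inhibition above 80% but not taken into the dose series; inactive means below 80% or under 30% at every dose of the series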;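 further: bacteria incubated seven days before Alamar blue readout; 0% = bacteria only wells and 100% = bacteria with antibiotic wells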
Arbovirus inh repeat = also measured in Arbovirus inh; calls as there; inhibition, %; measured here: 10K subset replicate screen; many hits read low in the repeat;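 first of two repeat runs on a subset; 0% = infected and 100% = uninfected wells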
Starred values were filed as active, the others as inactive; ? = inconclusive; . = no result given; & = joins results of further samples. Some of the compounds tested; rates above refer to the full screens.

SMILES	Mtb bLac sens	Arbovirus inh	YopH inh	RecA intein inh	Mtb H37Rv	others
N/N=c1\sc2ccccc2n1-c1ccccc1	-3	0	-36	-3.2	2%
O=C(Nc1nnc(-c2ccccc2Cl)o1)c1cccnc1	94	-2	0	5.1	?
CC(=O)Nc1ccc(C=C(C(C)=O)C(C)=O)cc1	6	.	.	-0.3	-13%
CCN(CC)CCNC(=O)c1ccc2c(c1)ncn2C1CCCCC1	-5	-8	-44	0.7	-7%
CC1SC(=S)N(c2ccc(N(C)C)cc2)C1=O (configuration not stated)	5	.	.	-3.4	.
Nc1no[n+]([O-])c1-c1ccccc1	1	0	.	-3.6	-10%
COc1ccc(N2CCN(C(=O)COc3ccc4c(C)c(C)c(=O)oc4c3C)CC2)cc1	-1	.	.	-2.5	.
O=C(Cc1ccc2c(c1)OCCO2)N1CCN(S(=O)(=O)c2ccccc2C(F)(F)F)CC1	?	13	-3	-0.9	-1%
Cc1ccc2nsnc2c1S(=O)(=O)N1CCCC1C(=O)O (configuration not stated)	-1	1	.	1.8	-8%
Cn1c(CN2CCOCC2)nnc1SCC(=O)Nc1ccc([N+](=O)[O-])cc1O	-1	.	.	-6.6	.
O=C(CSc1ncnc2c1cnn2Cc1ccccc1)Nc1ccc2c(c1)OCCO2	92	-3	-43	0.9	-2%
O=C(O)c1cc([N+](=O)[O-])ccc1NCCO	-6	15	-25	3.3	-3%
C=CCn1c(N)c(C(=O)N2CCN(C)CC2)sc1=S	-7	-1	-19	1.4	5%
O=C(Cn1c(=O)oc2cc(S(=O)(=O)N3CCCC3)ccc21)N1CCN(c2ccccc2F)CC1	4	.	.	-1.6	.
O=C(N/N=C/c1coc2ccccc2c1=O)c1ccccc1	-8	4	.	3.5	6%
O=C(c1ccco1)N1CCN(C(=O)C2(S(=O)(=O)c3ccc(Cl)cc3)CC2)CC1	-4	3	-6	.	-3%
OCCC1CN(Cc2ccc3nsnc3c2)CCN1CCc1ccccc1 (configuration not stated)	-3	-2	.	5.5	-1%
COc1ccc(OC)c(NC(=O)c2cc3ccccc3o2)c1	5	-1	-16	-0.4	7%
O=C(CSc1nnnn1Cc1ccccc1)Nc1cccc(F)c1	-7	.	.	-2.6	.
CCCCNC(=O)CSc1nc2ccccc2c(=O)n1CC1COc2ccccc2O1 (configuration not stated)	3	2	-110	1.0	2%
Cc1sc2c(c1C)c(=O)n(-c1ccccc1)c1nncn21	-2	7	-28	1.2	-7%
O=c1/c(=C/c2ccccn2)sc2nc3ccccc3n12	-6	0	-34	-0.4	.
CCOc1nc(-c2ccccc2)ccc1-c1noc(COc2ccccc2)n1	58	2	-16	5.9	11%
COc1ccc(-c2nc3c(c(SCC(=O)N4CCOCC4)n2)Cc2c(CO)cnc(C)c2O3)cc1	0	.	.	-1.6	.
COc1ccc(C)cc1S(=O)(=O)Nc1cccc(Cl)c1	-3	5	13	1.5	5%

Pulled one by one from the list above (2):
SMILES	Mtb bLac sens	Arbovirus inh	YopH inh	RecA intein inh	Mtb H37Rv	others
CC(=O)Nc1ccc(C=C(C(C)=O)C(C)=O)cc1	6	.	.	-0.3	-13%
Cn1c(CN2CCOCC2)nnc1SCC(=O)Nc1ccc([N+](=O)[O-])cc1O	-1	.	.	-6.6	.

Additional results:
SMILES	Mtb bLac sens	Arbovirus inh	YopH inh	RecA intein inh	Mtb H37Rv	others
COC(=O)c1c(NC(=O)COC(=O)c2ccccn2)sc(C)c1C	4	.	.	-0.1	.
Clc1ccccc1CN1CCN(c2ccccc2)CC1	7	6	-2	2.3	-1%
O=C(CCN1C(=O)C2C3CC(C(Br)C3Br)C2C1=O)OCC(=O)c1cccc([N+](=O)[O-])c1 (configuration not stated)	-5	.	.	1.7	.
COc1ccc(NC(=O)CNC(=O)C23CC4CC(CC(C4)C2)C3)c(OC)c1	-11	.	.	0.8	.
O=C(CCc1nc2ccccc2c(=O)[nH]1)NCC(=O)Nc1ccc(F)c(F)c1	4	.	.	-2.3	.
CCc1ccc(CNC(=O)CCCC(=O)n2nc(C)c3ccccc32)cc1	-3	.	.	-0.5	.
O=C(NCc1cccnc1)c1c[nH]c2cc3c(cc2c1=O)OCCO3	-2	7	-24	-0.1	-1%
Cn1c(=O)[nH]c2sc3c(c2c1=O)CC(C)(C)OC3	3	8	-12	0.5	-4%
CCC(c1nnnn1C1CCCC1)N1CCN(c2ccccc2F)CC1 (configuration not stated)	-7	6	-52	-1.0	-2%
COc1ccc(Oc2nnc(-c3ccc(C)cc3)c3ccccc23)cc1	6	-1	-41	-3.1	-12%
CCOc1ccc(NC(=O)C(=O)NCCN2CCN(S(=O)(=O)c3ccc(C)cc3)CC2)cc1	-1	.	.	-3.8	.
CC(C)(C)C(=O)Nc1sc2c(c1-c1nc3ccccc3[nH]1)CCCC2	-7	-5	-3	1.4	6%
CN1CCc2c(sc(NC(=O)c3ccc(C(=O)c4ccccc4)cc3)c2C(N)=O)C1	-7	.	.	-1.2	.
Cc1cccc(NC(=O)COC(=O)c2cccs2)c1C	-5	.	.	1.1	.
CC(C)(C)c1nn(-c2ccccc2)c2nc(Cl)c(C=O)cc12	13	-6	-40	0.5	.
Cc1cc(/C=C2\C(=N)N3N=C(S(C)(=O)=O)SC3=NC2=O)c(C)n1Cc1ccccc1	6	10	.	-1.9	-2%
COc1cc(Cl)c(C)cc1NC(=O)COC(=O)/C=C/c1c(C)nn(C2CCS(=O)(=O)C2)c1Cl (configuration not stated)	-2	-6	-36	-0.9	16%
CC(C)C[C@@H](COc1ccccc1)N1CCN(CCc2ccccc2)CCC1=O	-1	.	.	4.2	.
O=C(CNC(=O)c1ccccc1F)OCCCOC(=O)CNC(=O)c1ccccc1F	1	.	.	0.8	.
CS(=O)(=O)Nc1ccc(C2=NN(C(=O)c3ccco3)C(c3ccc(F)cc3)C2)cc1 (configuration not stated)	4	-10	.	4.0	-4%
CSC1=C(C#N)C(=O)NC(c2ccccc2O)S1 (configuration not stated)	-4	.	.	-1.7	-1%
CC(=O)c1cc(Cc2csc(C(C)=O)c2)cs1	5	1	-41	0.3	-8%	Arbovirus inh repeat=-3
O=C(CN1C(=O)NC2(CCCC2)C1=O)Nc1nc(-c2ccc(F)cc2)cs1	0	2	-16	-3.9	-12%
O=C(c1ccccc1)N(Cc1ccccc1)c1ccccn1	-3	-1	2	-0.5	-5%
C=CCO/N=C/C1=C(O)C(C(=O)OC)C(C)(C)CC1=O (configuration not stated)	-6	13	.	-1.3	-1%

The list continues:
SMILES	Mtb bLac sens	Arbovirus inh	YopH inh	RecA intein inh	Mtb H37Rv	others
N#CCC(=O)Nc1ccc(C(=O)OCC(=O)Nc2ccccc2-c2ccccc2)cc1	-2	-2	.	2.4	-3%
Cc1ccc(C(=O)C2=C(O)C(=O)N(Cc3ccco3)C2c2cccc(Br)c2)o1 (configuration not stated)	6	.	.	2.4	.
CN(C)c1cccc2c(S(=O)(=O)N3CCOCC3)cccc12	2	-3	-23	-1.8	-12%
COC(=O)c1ccc2c(=O)n(-c3ccccc3F)c(=S)[nH]c2c1	-6	18	.	-2.9	7%
CCOc1cccc(NC(=O)C2CC(=O)N(C)C(=Nc3cccc(F)c3)S2)c1 (configuration not stated)	-1	-3	-59	-1.2	8%
O=C(O)c1cc2n(n1)C(C(F)(F)F)CC(c1ccco1)N2 (configuration not stated)	-6	14	-4	.	6%
O=C(CN1CCN(S(=O)(=O)c2ccccc2F)CC1)Nc1ccccc1C(=O)c1ccccc1	23	2	.	7.9	2%
Cn1c(=O)cc(SCC(=O)NCCCN2CCOCC2)c2ccc(Cl)cc21	-1	5	-34	2.3	-2%
CCn1cc(CCCC(=O)NCc2cccnc2)c2ccccc21	-4	.	.	-1.9	.
CC(C)N(C(=O)CSc1nnc(Cc2csc(Nc3ccccc3)n2)o1)C(C)C	-5	-5	.	0.4	-4%
CC1=CC2=NC(=O)/C(=C\c3ccc(-c4cccc(Cl)c4)o3)C(=N)N2O1	9	-19	-2	-2.0	5%
COc1ccccc1C(=O)NC(=O)COC(=O)CNC(=O)c1ccc(Cl)cc1Cl	-1	.	.	0.2	.
Cc1cccc(-c2nc(CS(=O)CC(=O)NCc3cccs3)c(C)o2)c1 (configuration not stated)	-1	-8	-12	1.4	4%
CN(c1ccc(O)cc1)S(=O)(=O)c1ccc2ccccc2c1	-1	.	.	7.5	.
CCn1c(CNC(=O)c2ccccc2Br)nnc1SCC(=O)NC1=NCCS1	0	.	.	0.4	.
CCN(CC(=O)NC1CCS(=O)(=O)C1)S(=O)(=O)c1c(C)c(C)cc(C)c1C (configuration not stated)	-4	.	.	-2.3	.
CN(C)c1cccc2c(S(=O)(=O)NCc3ccc(S(N)(=O)=O)cc3)cccc12	3	.	.	.	0%
COc1ccc(C(=O)Nc2nncs2)cc1S(=O)(=O)N1CCOCC1	0	.	.	2.3	.
Cc1sc(NC(=O)c2c(F)cccc2F)nc1-c1ccccc1	7	.	.	3.1	.
CC(=O)OCn1nnc2ccccc2c1=O	89	11	-21	-2.7	7%
Nc1cc(=O)[nH]c(SCC(=O)Nc2cccnc2Cl)n1	2	.	.	-4.0	.
COC(=O)CSc1nsc(SCC(=O)OC)n1	1	2	-39	0.4	-1%
Cc1cc(NC(=O)c2ccc(Cl)cc2Cl)no1	-3	.	.	-0.2	.
CCN(CC)C(=O)CN(c1cc2c(cc1OC)oc1ccccc12)S(=O)(=O)c1ccc(C)cc1	2	-5	4	7.8	2%
COC(=O)C1C2c3ccccc3C(c3ccccc32)C1C(=O)OC (configuration not stated)	-7	22	.	-1.6	-4%

Next section:
SMILES	Mtb bLac sens	Arbovirus inh	YopH inh	RecA intein inh	Mtb H37Rv	others
CC1(C)Cc2c(cnn2-c2ccccc2)C(NC(=O)CCCn2cncn2)C1 (configuration not stated)	-2	.	.	1.4	.
Cc1cccc(C)c1NC(=O)CN(C)C(=O)c1ccc(NS(=O)(=O)c2ccc3[nH]c(=O)[nH]c3c2)cc1	-16	.	.	1.6	.
O=S(N1CCCCC1)C12CC3CC(CC(C3)C1)C2 (configuration not stated)	-3	4	.	0.1	-2%
CCOc1ccc(C=NC23CN4CN(CN(C4)C2)C3)cc1	1	5	-10	-1.3	-6%
COc1cc(/C=N\NC(C)=O)ccc1OC/C=C/c1ccccc1	3	.	.	0.2	.
COc1ccc(S(=O)(=O)N2CCN=C2SCc2cccc(C)c2)cc1	?	.	.	9.3	.
CC(=O)Nc1ccc(C(=O)OCC(=O)Nc2c(F)cccc2F)cc1	-6	.	.	-0.2	-9%
CCOC(=O)c1c(NC(=O)C(=O)N/N=C/c2ccc(O)c(OC)c2)sc2c1CCCCC2	5	1	-17	-6.5	-5%
O=C(CCCCCN1C(=O)CCC1=O)Nc1ccc(Br)cc1F	-3	12	-28	0.7	3%
O=C1C2CCCN2C(=O)N1CCCCN1CCN(c2ccc(F)cc2)CC1 (configuration not stated)	-4	2	-52	1.2	-3%
COc1cc2c(N3CCOCC3)cc(O)c(CC(=O)Nc3ccccc3)c2cc1OC	-4	-18	-8	-2.8	-5%
CCN1CCN(C(c2ccccc2)c2sc3nc(C)nn3c2O)CC1 (configuration not stated)	2	0	.	0.0	-3%	Arbovirus inh repeat=-2
O=C(NCCc1nc2ccc(Cl)cc2[nH]1)C1CCC(=O)N(Cc2cccc(F)c2)C1 (configuration not stated)	-7	.	.	-0.6	.
Oc1ccc(NCc2ccccc2OCc2ccccc2F)cc1	40	-5	-14	4.1	6%
COC(=O)C1=C(N)OC2=C(C(=O)CC(C)(C)C2)C1c1ccccc1OCC#N (configuration not stated)	8	1	.	-3.4	4%
CN(C)CC(=O)N1CCc2ccccc2C1	-3	4	.	2.8	2%
CNC(=O)c1cc(C(=O)c2ccccc2C(F)(F)F)c[nH]1	-8	0	.	-0.3	4%
C[n+]1c2n(c3ccccc31)N=C(c1ccccc1)CS2	-6&4	2&-1	-19	-1.9&-1.8	0%&-5%

Arranged by molar mass (smallest number first): five of the compounds above.
SMILES	Mtb bLac sens	Arbovirus inh	YopH inh	RecA intein inh	Mtb H37Rv	others
CNC(=O)c1cc(C(=O)c2ccccc2C(F)(F)F)c[nH]1	-8	0	.	-0.3	4%
Oc1ccc(NCc2ccccc2OCc2ccccc2F)cc1	40	-5	-14	4.1	6%
CCN1CCN(C(c2ccccc2)c2sc3nc(C)nn3c2O)CC1 (configuration not stated)	2	0	.	0.0	-3%	Arbovirus inh repeat=-2
CCOC(=O)c1c(NC(=O)C(=O)N/N=C/c2ccc(O)c(OC)c2)sc2c1CCCCC2	5	1	-17	-6.5	-5%
Cc1cccc(C)c1NC(=O)CN(C)C(=O)c1ccc(NS(=O)(=O)c2ccc3[nH]c(=O)[nH]c3c2)cc1	-16	.	.	1.6	.
